D2 PAM: positive allosteric modulators of human D2 dopamine receptor; DiscoveRx D2 beta-arrestin cells, luminescence, 90 min; 100% = 57 uM dopamine signal; potentiation, % (test concentration not listed); 360,000 tested, 0.23% active; active = potentiation of 50% or more; inconclusive = 30% to 50%; inactive = 30% or less;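 also: compound concentration not given in the record; tested on top of an EC20 dose of dopamine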
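PathHunter beta-arrestin assay in DiscoveRx D2 cells. Compounds were added with an EC20 of dopamine (50 nM final) for 90 min at 37 deg C. Luminescence was read 1 h after detection reagent, with 57 uM dopamine as the EC100 control.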
gsp agonist: agonists of gsp mutant (McCune-Albright syndrome); gsp mutant cells, cAMP HTRF, 30 min; control for the full effect not named in the record; Potency, µM (highest dose often 76.9 µM), for inactives: top-dose activation (cAMP increase), usual class: activators; 340,000 tested, 0.13% active; AID 624287; active = well fitted activation curve with a large enough effect; inconclusive = small, poorly fitted or top-dose-only effect, or another doubt; inactive = no such curve, though single readings can be large or run the other way; cell line not stated here;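 also: phosphodiesterase inhibitor Ro 20-1724 added with compounds to block cAMP breakdown; potency is read from the fitted curve at half-maximal effect; nearly all actives have a fitted effect of over 60% in size; about a fifth of the inactives were tested at one dose only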
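Cells in DMEM/10% FBS with G418 were pretreated with compounds in DMSO plus […] (300 uM stock) for 30 min at 37C. cAMP was measured by HTRF (cAMP-d2 plus anti-cAMP antibody-K) after 30 min at room temperature.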
Menin-MLL FL inh: displaces fluorescein MLL peptide from human menin; Fluorescence polarization, fluorescein-MLL peptide displacement from menin; FP activity change, % at 61.4 µM; 290,000 tested, under 10 active; AID 1766; inconclusive = falling polarisation curve, or a change in total fluorescence; inactive = total fluorescence flat and polarisation flat or rising; no compound was filed as active; the % refers to the polarisation; negative = inhibition;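 also: % of control where 0% means no effect; inhibitors lower the polarisation; unlabelled MLL peptide was the positive control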
ClpP mod: qHTS Assay for Activators of ClpP. ATP-dependent Clp protease proteolytic subunit (Bacillus subtilis (strain 168)), P80244. purified B. subtilis ClpP, FRET peptide cleavage, 20 min. Potency, µM (highest dose often 57.5 µM), for inactives: top-dose activity change, negative = active. 340,000 tested, 1.9% active. AID 651965, 2013; active = well fitted falling curve with a large enough effect; inconclusive = small, poorly fitted or top-dose-only effect; inactive = no such curve, though single readings can be large or run the other way; also: potency is read from the fitted curve at half-maximal effect; the source files actives as falling curves though it sought activators and does not explain the sign; nearly all actives have a fitted effect of over 65% in size; many hits overshoot -100%
Target sequence (P80244 whole entry, looked up): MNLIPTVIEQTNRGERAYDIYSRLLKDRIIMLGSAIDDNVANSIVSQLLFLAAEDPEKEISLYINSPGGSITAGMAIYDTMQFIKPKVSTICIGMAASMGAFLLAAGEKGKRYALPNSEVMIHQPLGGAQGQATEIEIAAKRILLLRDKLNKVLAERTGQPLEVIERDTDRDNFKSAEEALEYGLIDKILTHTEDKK
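Purified B. subtilis ClpP, 10 microg/mL final in Tris/HCl pH8 with KCl, BSA, glycerol and Tween-20, cleaved an Abz/nitrotyrosine-quenched decapeptide. Fluorescence (ex 320, em 430) was read at 0 and 20 min at room temperature. Delta was normalized to 5.8 microM ADEP and DMSO/no-enzyme controls.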
gsp antagonist: gsp mutant antagonism; Potency, µM (titrated, usually from 76.9 µM), inactives show at the highest dose activity change, negative = inhibition, usual class: inhibitors; gsp-mutant cells, cAMP HTRF, 30 min; control for the full effect not named in the record; 340,000 tested, 0.4% active; active = falling curve of any shape with a large fitted effect; inconclusive = falling curve, mostly with a smaller effect; inactive = flat or rising curve; cell line not stated here;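 also: intracellular cAMP measured with PDE inhibitor Ro 20-1724 present during compound exposure; potency is read from the fitted curve at half-maximal effect; % is scaled to controls: 0 for no effect and ±100 for the full control effect; nearly all actives have a fitted effect of over 65% in size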
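Measurement of cellular cAMP by homogeneous time-resolved fluorescence following a 30 min compound exposure at 37C. The PDE inhibitor […] was present throughout; the assay buffer was DPBS with 0.05% BSA and 0.005% Tween 20.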
Sfp PPTase inh: inhibitors of Bacillus subtilis Sfp phosphopantetheinyl transferase; Q9F4F7; Biochemical Sfp PPTase activity, qHTS; Potency, µM, for inactives: max response, negative = inhibition, most hits filed as inhibitors; 310,000 tested, 3.5% active; active = well fitted inhibition curve with a large enough effect; inconclusive = small, poorly fitted or top-dose-only effect, or another doubt; inactive = no such curve, though single readings can be large or run the other way;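 also: the enzyme is Sfp with the accession as filed and its product quenches rhodamine fluorescence; potency is read from the fitted curve at half-maximal effect; 0% = enzyme reaction without inhibitor and -100% = no enzyme wells; top concentration of the series not given in the record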
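Buffer: 50 mM Hepes-Na pH 7.6, 10 mM MgCl2, 0.01% Nonidet P-40, 0.01% BSA. Enzyme 15 nM, pre-exposed to compound 15 min; substrates then added and fluorescence change tracked over 30 min.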
TRPV1 PAM: potentiators of human vanilloid receptor 1 (TRPV1). 320,000 tested, 0.02% active. TRPV1-expressing cells, Fluo-8 calcium influx, capsaicin EC20 potentiation; host cell line not named in the record; control for the full effect not named in the record. Q8NER1. potentiation, % at 8.33 µM. AID 540277; active means potentiation above 80%; inconclusive means 30% to 80%; inactive means below 30%; also: 0% is about no effect
Target sequence (Q8NER1 whole entry, looked up): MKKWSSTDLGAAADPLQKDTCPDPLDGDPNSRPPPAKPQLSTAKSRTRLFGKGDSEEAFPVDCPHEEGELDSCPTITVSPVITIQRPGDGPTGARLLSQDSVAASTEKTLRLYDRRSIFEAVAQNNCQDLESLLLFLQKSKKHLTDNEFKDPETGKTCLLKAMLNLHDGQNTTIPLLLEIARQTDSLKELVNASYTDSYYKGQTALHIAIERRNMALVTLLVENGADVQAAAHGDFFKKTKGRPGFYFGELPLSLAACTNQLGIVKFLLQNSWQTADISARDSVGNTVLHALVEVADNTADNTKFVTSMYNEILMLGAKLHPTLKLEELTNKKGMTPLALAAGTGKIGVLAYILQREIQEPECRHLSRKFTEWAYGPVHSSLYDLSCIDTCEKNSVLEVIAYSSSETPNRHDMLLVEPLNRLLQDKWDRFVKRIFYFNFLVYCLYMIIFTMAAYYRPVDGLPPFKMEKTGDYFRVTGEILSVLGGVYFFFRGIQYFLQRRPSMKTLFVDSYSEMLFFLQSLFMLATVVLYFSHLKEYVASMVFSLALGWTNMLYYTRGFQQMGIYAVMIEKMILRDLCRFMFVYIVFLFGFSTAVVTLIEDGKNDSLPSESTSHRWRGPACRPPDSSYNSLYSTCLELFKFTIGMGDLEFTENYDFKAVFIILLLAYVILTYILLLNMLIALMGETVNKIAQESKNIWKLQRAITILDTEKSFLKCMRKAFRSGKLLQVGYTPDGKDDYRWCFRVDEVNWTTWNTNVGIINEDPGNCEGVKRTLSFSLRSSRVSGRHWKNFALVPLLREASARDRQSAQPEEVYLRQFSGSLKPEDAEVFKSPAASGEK
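Cells expressing TRPV1 were dye-loaded with Fluo-8 and read kinetically: 10 s baseline, 3 min after compound (agonist portion), then 2 min after EC20 capsaicin (allosteric enhancer portion). Calcium-bound dye fluorescence at 480/520 nm.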
Numbers without * were called inactive; u = inconclusive; x = not tested or not shown; & = joins results of further samples; [ ] = another dose, or the depositor's remark.

SMILES | D2 PAM | gsp agonist | Menin-MLL FL inh | ClpP mod | gsp antagonist | Sfp PPTase inh | TRPV1 PAM
C#CCSc1nnc(-c2cccc3ccccc23)o1 | -9 | -44% | x | 32µM* | u | x | x
Cc1ccc(-c2[nH]nc3c2C(C)C(C#N)=C(N)O3)cc1 (stereo unspecified) | -6 | u | 3.8 | 0.3% | 8% | 6% | 3
Cc1sc2nc(C(C)Sc3nnc(C)n3-c3ccccc3)[nH]c(=O)c2c1C (stereo unspecified) | x | x | 3.9 | x | x | -21% | 9
COc1ccc(NC(=O)c2cc(S(=O)(=O)N3CCCC3)c[nH]2)cc1 | 0 | 1% | -1.5 | 2.5% | 5% | 8% | u
COc1ccc(Br)cc1C(=O)Nc1cccc(-c2nnc(-c3ccco3)o2)c1 | -12 | -4% | x | -2.6% | u | x | x
CCn1c(=O)c2c(O)cc(=O)oc2c2ccccc21 | -4 | -33%[inhibitor] | 11 | -0.7% | -13% | 19% | -4
COC(=O)c1ccc(CNC(=O)COC(=O)/C=C/c2ccc(OC)c(OC)c2)cc1 | -10 | -4% | x | -25% | -9% | x | x
c1ccc(CCc2nc(-c3ccncc3)no2)cc1 | 16 | 13% | 4.7 | -3.4% | 7% | 9% | 2
CC12CC(NC(=O)N1c1ccc(C(=O)N3CCN(c4ccc(F)cc4)CC3)cc1)c1ccccc1O2 (stereo unspecified) | -7 | -2% | 5.7 | 1.1% | -13% | 0% | 8
CCCC(=O)NC(=S)Nc1cccc(Cl)c1N1CCCC1 | -5 | -34%[inhibitor] | -0.5 | 0.2% | 2% | 30%[activator] | -11
CN1C(=O)NC(c2ccccc2)(C(F)(F)F)S/C1=C(/C#N)c1nnc(N2CCOCC2)n1-c1ccccc1 (stereo unspecified) | 1 | 47% | 4.2 | -5.4% | -19% | -4% | 2
Cc1cccc2cc(C#N)c(SCC(=O)N3CC(=O)Nc4ccccc43)nc12 | 8 | -23% | u | 20% | 2% | -25% | -8
CCOC(=O)C1(CCc2ccccc2)CCN(Cc2ccc(O)cc2)CC1 | -29 | u | 1.3 | -1.8% | -4% | 20% | -47
C[C@@H]1CN([C@@H](C)CO)C(=O)CCCn2nncc2CO[C@@H]1CN(C)C(=O)c1cc(-c2ccccc2)on1 | -10 | -24% | x | -1.1% | x | x | x
CC(C)C(NS(=O)(=O)c1cccc2nsnc12)C(=O)Nc1nccs1 (stereo unspecified) | 1 | -52%[inhibitor] | 1.4 | -0.1% | 6% | 14% | 3
COc1ccc(-c2nnc(N)s2)cc1 | 3 | -22% | 2.3 | u | 6% | 11% | -12
COc1cc(CC(=O)N2CCN(S(=O)(=O)c3ccc(C(C)C)cc3)CC2)cc(OC)c1OC | -16 | 19% | x | -2.0% | x | x | x
Cc1nc2nc3c(cn2n1)C(=O)CC(C)(C)C3 | 4 | -3% | -0.9 | -2.2% | 18% | 7% | 4
COc1ccccc1OCc1ccc(C(=O)NN)o1 | -16 | 16% | -3.2 | -0.9% | 0% | 23% | -5
Cc1ccc2c(c1)CCCN2C(=O)c1ccc2c(c1)OCO2 | -2 | -3% | 2.4 | -0.2% | -9% | 11% | 0
CN(C)CCCN(C(=O)c1ccc(Br)s1)c1nc2cc3c(cc2s1)OCCO3 | -30 | -7%[15.4 µM] | x | -0.9% | 14% | x | -20
CC(C)(C)OC(=O)C(Cc1ccc(OC(C)(C)C)cc1)NC(=O)CNC(=O)CNC(=O)OCc1ccccc1 (stereo unspecified) | -10 | -4%[15.4 µM] | 1.1 | 1.8% | 9% | 26% | -4
COc1ccc(/C=N/N=C2\SC(CC(=O)O)C(=O)N2c2ccccc2)cc1 (stereo unspecified) | -1 | 8% | 1.5 | -0.7% | 2% | -9% | 17
C=C(C)Cn1c(CCNC(=O)CCC)nc2ccccc21 | 0 | -6% | -3.3 | 0.2% | -1% | 2% | -16
CCCN(Cc1nnc(-c2cccs2)o1)C(=O)CN1C(=O)NC2(CCCCC2C)C1=O (stereo unspecified) | -5 | 24% | x | -2.8% | 0% | x | 6

Overlap with the part before: six compounds, followed by the next part.
SMILES | D2 PAM | gsp agonist | Menin-MLL FL inh | ClpP mod | gsp antagonist | Sfp PPTase inh | TRPV1 PAM
Cc1ccc2c(c1)CCCN2C(=O)c1ccc2c(c1)OCO2 | -2 | -3% | 2.4 | -0.2% | -9% | 11% | 0
CN(C)CCCN(C(=O)c1ccc(Br)s1)c1nc2cc3c(cc2s1)OCCO3 | -30 | -7%[15.4 µM] | x | -0.9% | 14% | x | -20
CC(C)(C)OC(=O)C(Cc1ccc(OC(C)(C)C)cc1)NC(=O)CNC(=O)CNC(=O)OCc1ccccc1 (stereo unspecified) | -10 | -4%[15.4 µM] | 1.1 | 1.8% | 9% | 26% | -4
COc1ccc(/C=N/N=C2\SC(CC(=O)O)C(=O)N2c2ccccc2)cc1 (stereo unspecified) | -1 | 8% | 1.5 | -0.7% | 2% | -9% | 17
C=C(C)Cn1c(CCNC(=O)CCC)nc2ccccc21 | 0 | -6% | -3.3 | 0.2% | -1% | 2% | -16
CCCN(Cc1nnc(-c2cccs2)o1)C(=O)CN1C(=O)NC2(CCCCC2C)C1=O (stereo unspecified) | -5 | 24% | x | -2.8% | 0% | x | 6
Cc1ccc(C(=O)CN(CCCC(N)=O)C(=O)c2ccncc2)cc1 | -30 | x | x | -0.6% | 9% | x | -8
Cn1nnnc1SCC(=O)N1CCN(c2cccc(Cl)c2)CC1 | -3 | u | 0.5 | -15% | -2% | 4% | -9
COc1ccc(C2=Nc3ccc(C)cc3C(c3ccccc3)N2CC(=O)NN)cc1 (stereo unspecified) | -10 | 6% | -0.2 | x | 12% | 10% | 11
CC1(C)Cc2c(cnn2-c2ccccc2)C(NC(=O)c2ccc[n+]([O-])c2)C1 (stereo unspecified) | -9 | -39%[inhibitor] | x | 0.4% | 0% | 8% | -19
CC1(C)CC(NS(=O)(=O)c2ccc(F)cc2)CC(C)(C)N1 | -1 | -4% | -1.8 | x | 4% | 5% | 0
COc1ccc(CNC(=O)C2CCN(S(=O)(=O)N3CCC4(CC3)OCCO4)CC2)c(OC)c1 | 9 | -11%[15.4 µM] | 0.2 | -7.8% | 7% | 20% | -9
CN(Cc1ccccc1F)C(=O)c1sccc1-c1ccccc1 | -5 | 17% | x | -1.8% | -18% | 18% | -5
CC[C@@H](C)C(NC(=O)OC(C)(C)C)c1cn([C@@H](CCCCNC(=O)OC(C)(C)C)C(=O)N2CCN(C(=O)OC(C)(C)C)CC2)nn1 (stereo partly specified) | 12 | x | -10 | 2.3% | -10% | 9% | -2
CCCCN1C(N)=NC[C@@H]1CC1CCCCC1 | -9 | 8% | x | 1.9% | 12% | x | x
CCC(C)Sc1nnc(NC(=O)c2ccco2)s1 (stereo unspecified) | 0 | -15% | x | -0.6% | 2% | x | x
Cc1[nH]n(-c2ccccc2)c(=O)c1-c1ccccc1 | 9 | 0% | -0.8 | 0.4% | 11% | 10% | 11
CCOC(=O)c1c(NC(=O)CCl)sc(C(=O)N(CC)CC)c1C | -14 | 22% | 1.1 | -0.9% | -4% | 2% | u
Cc1ccc(N(CCC(=O)NC(C)(C)C)S(=O)(=O)c2ccc(C)cc2)cc1 | -4 | -3% | -3.6 | x | -1% | -1% | -12
O=C(c1ccccc1)N1CCN(Cc2ccccc2Br)CC1 | -32 | 11% | 7.7 | 2.1% | 6% | -25% | -3
C[C@H]1CN=C(Nc2ccccc2)N1CCCC1CCCC1 | -23 | 7% | 2.6 | 1.5% | 11% | 1% | -3
COc1ccc2c(c1)C(=O)N(c1ccc(C)cc1C)C(=O)C2(C)C | -4 | 1%[15.4 µM] | 8.0 | x | u | 12% | 22
Clc1ccc(Nc2ncnc3c2nnn3Cc2ccccc2)cc1 | 0 | -6% | 2.2 | x | 1% | 30% | 5
CCCCn1c(SCC(=O)OCC)nc2c(sc(=S)n2-c2ccccc2OC)c1=O | -2 | 0%[15.4 µM] | -5.9 | -0.8% | u | -3% | -3
CC1(C(=O)O)CCC(C(=O)N2CCCCC2)C1(C)C (stereo unspecified) | -21 | -9%[15.4 µM] | 4.4 | 0.7% | -6% | 0% | -13
CN1CCN(C(=O)/C=C/c2ccc3c(c2)OCO3)CC1 | 9 | -26% | x | u | 7% | 5% | u
Cn1nnnc1Sc1ccc([N+](=O)[O-])cc1Cl | 19 | 8%[15.4 µM] | 0.4 | x | 3% | 5% | -3
CC(NC(=O)Nc1nnc(C(F)(F)F)s1)N1C(=O)C2C3C=CC(C3)C2C1=O (stereo unspecified) | 4 | 1% | -0.1 | -0.2% | -3% | 8% | 13
CCc1ccccc1-n1nnc(-c2ccccc2)n1 | 6 | -1% | 2.1 | 1.3% | 3% | 1% | -1
CCc1ccc(NC(=O)CSc2nc(=O)n(CCN(C)C)c3c2CCCC3)cc1 | -6 | 16%[15.4 µM] | x | -0.4% | 9% | x | -2
CCOC(=O)Cn1c(=O)oc2cc(S(=O)(=O)N3CCCC(C)C3)ccc21 (stereo unspecified) | -8 | 6% | x | 2.2%&1.2% | 19% | 10% | -25
Next part:
SMILES | D2 PAM | gsp agonist | Menin-MLL FL inh | ClpP mod | gsp antagonist | Sfp PPTase inh | TRPV1 PAM
O=C(Cc1ccccc1)Nc1cccc(C(=O)N/N=C/c2ccco2)c1 | -30 | 7% | 1.8 | -1.6% | 1% | 0% | 12
COc1ccccc1NC(=O)C(=O)NCC1CCCN1S(=O)(=O)c1cccs1 (stereo unspecified) | -14 | -7% | x | -1.7% | -10% | x | 3
CC1CCCCN1C(=O)CCn1c(=S)oc2ccccc21 (stereo unspecified) | -4 | -5%[15.4 µM] | 2.8 | x | 2% | 5% | x
COCCNC(=S)NNc1cccc(C(=O)O)c1 | -19 | -1%[15.4 µM] | -4.9 | 0.1% | -3% | 7.1µM* | u
COc1cc(/C=C/C(=O)OCC(=O)Nc2cccc(Oc3ccccc3)c2)ccc1O | -20 | 1% | 5.3 | -17% | -13% | 14% | 5
COc1ccc(-c2noc(CN3CCN(c4ccccc4)CC3)n2)cc1 | -4 | 8% | 4.9 | 0.9% | -1% | 4% | x
